Source: PubChem BioAssay
CtBP-E1A blk – qHTS Assay for Inhibitors of the CtBP/E1A Interaction; activity change, % (test concentration not listed); 340,000 compounds, 0.49% hits; AlphaScreen GST-E1A/His-CtBP binding, 1536-well; active compounds read low; control for the full effect not named in the record; in the data active means activity change below about -65%; inconclusive means about -30% to -65%; inactive means above about -30%; note: % is set by controls: 0 for no effect and ±100 for the full control effect
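Protein mix (5X: 125 nM each GST-E1A, His-CtBP) was incubated with pinned compound 2 h at 37 deg C in dark, in 50 mM Tris pH 8.0 buffer with 300 mM NaCl. Glutathione donor and nickel acceptor beads followed; AlphaScreen signal read after 1 h.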
gsp antagonist – qHTS for Antagonists of gsp, the Etiologic Mutation Responsible for Fibrous Dysplasia/McCune-Albright Syndrome: qHTS. 340,000 compounds, 0.4% hits. gsp-mutant cells, cAMP HTRF, 30 min; control for the full effect not named in the record. AID 624288, 2012. Potency, µM (highest dose often 76.9 µM), without a hit: top-dose activity change, negative = inhibition, actives largely listed as inhibitors; active = falling curve of any shape with a large fitted effect; inconclusive = falling curve, mostly with a smaller effect; inactive = flat or rising curve; cell line not stated here;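 note: intracellular cAMP measured with PDE inhibitor Ro 20-1724 present during compound exposure; potency is the fitted concentration of half-maximal effect; % is set by controls: 0 for no effect and ±100 for the full control effect; nearly all actives have a fitted effect of over 65% in size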
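G418-selected cells were plated in DMEM/10% FBS for 16-24 h at 37C, then treated with compounds plus the PDE inhibitor […] (300 uM solution added) for 30 min at 37C. Intracellular cAMP was measured by HTRF after 30 min lysis at room temperature.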
gsp ag – qHTS for Agonist of gsp, the Etiologic Mutation Responsible for Fibrous Dysplasia/McCune-Albright Syndrome: qHTS; 340,000 compounds, 0.13% hits; gsp mutant cells, cAMP HTRF, 30 min; control for the full effect not named in the record; AID 624287, 2012; Potency, µM (highest dose often 76.9 µM), inactives show at the top dose activation (cAMP increase), usual class: activators; active = well fitted activation curve with a large enough effect; inconclusive = small, poorly fitted or top-dose-only effect, or another doubt; inactive = no such curve, though single readings can be large or run the other way; cell line not stated here;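 note: phosphodiesterase inhibitor Ro 20-1724 added with compounds to block cAMP breakdown; potency is the fitted concentration of half-maximal effect; nearly all actives have a fitted effect of over 60% in size; about a fifth of the inactives were tested at one dose only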
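Cells stably selected in G418 were plated at 2000/well, grown 16-24 hr, then given compounds in DMSO with the PDE inhibitor […] (300 uM solution added) for 30 min at 37C; cAMP was read by HTRF.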
TRPV1 potentiator – HTS Assay for Compounds that Act as Potentiators of the Vanilloid Receptor 1. TRPV1-expressing cells, Fluo-8 calcium influx, capsaicin EC20 potentiation; host cell line not named in the record; control for the full effect not named in the record. Transient receptor potential cation channel subfamily V member 1 (Homo sapiens), Q8NER1. potentiation, % at 8.33 µM. 320,000 compounds, 0.02% hits. AID 540277, 2011; active means potentiation above 80%; inconclusive means 30% to 80%; inactive means below 30%; note: 0% is about no effect
Target sequence (Q8NER1 whole entry, looked up): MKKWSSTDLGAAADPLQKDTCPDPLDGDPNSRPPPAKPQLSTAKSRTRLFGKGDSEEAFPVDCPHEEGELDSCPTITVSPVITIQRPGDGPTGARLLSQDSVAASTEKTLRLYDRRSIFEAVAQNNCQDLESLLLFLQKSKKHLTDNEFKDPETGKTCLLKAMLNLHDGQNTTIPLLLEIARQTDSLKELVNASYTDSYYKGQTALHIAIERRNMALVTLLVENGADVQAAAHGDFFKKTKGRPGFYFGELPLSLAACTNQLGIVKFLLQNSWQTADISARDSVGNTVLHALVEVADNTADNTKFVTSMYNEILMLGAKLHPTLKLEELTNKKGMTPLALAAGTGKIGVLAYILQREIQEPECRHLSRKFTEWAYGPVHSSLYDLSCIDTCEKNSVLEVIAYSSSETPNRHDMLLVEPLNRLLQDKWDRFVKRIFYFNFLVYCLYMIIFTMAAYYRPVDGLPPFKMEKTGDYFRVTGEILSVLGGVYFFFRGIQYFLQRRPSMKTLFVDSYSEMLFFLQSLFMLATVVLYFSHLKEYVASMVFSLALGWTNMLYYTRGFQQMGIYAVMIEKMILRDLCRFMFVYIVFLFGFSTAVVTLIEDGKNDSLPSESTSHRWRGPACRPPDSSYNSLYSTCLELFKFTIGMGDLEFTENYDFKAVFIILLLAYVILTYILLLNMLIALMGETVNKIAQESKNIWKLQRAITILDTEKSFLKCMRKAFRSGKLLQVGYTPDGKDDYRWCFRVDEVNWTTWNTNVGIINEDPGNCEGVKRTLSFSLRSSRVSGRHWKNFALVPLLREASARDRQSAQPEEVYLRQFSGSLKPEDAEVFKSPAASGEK
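TRPV1-expressing cells were cultured overnight at 35.5C and loaded with Fluo-8 calcium dye for 40 to 90 min at room temperature. After a 10 s baseline, compound was added and calcium influx was read kinetically for 3 min (ex 480/em 520 nm).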
Menin MLL FP FL – qHTS Assay for Inhibitors Targeting the Menin-MLL Interaction in MLL Related Leukemias: Competition With Fluorescein Labeled MLL-derived Peptide. FP activity change, % at 61.4 µM. Fluorescence polarization, fluorescein-MLL peptide displacement from menin. AID 1766, 2009. 290,000 tested, under 10 active; inconclusive = falling polarisation curve, or a change in total fluorescence; inactive = total fluorescence flat and polarisation flat or rising; no compound was filed as active; the % refers to the polarisation; negative = inhibition;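 note: % of control where 0% means no effect; inhibitors lower the polarisation; unlabelled MLL peptide was the positive control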
ClpP mod – qHTS Assay for Activators of ClpP. ATP-dependent Clp protease proteolytic subunit (Bacillus subtilis (strain 168)), P80244. 340,000 compounds, 1.9% hits. AID 651965, 2013. Potency, µM (series often up to 57.5 µM), without a hit: top-dose activity change, negative = active. purified B. subtilis ClpP, FRET peptide cleavage, 20 min; active = well fitted falling curve with a large enough effect; inconclusive = small, poorly fitted or top-dose-only effect; inactive = no such curve, though single readings can be large or run the other way; note: potency is the fitted concentration of half-maximal effect; the source files actives as falling curves though it sought activators and does not explain the sign; nearly all actives have a fitted effect of over 65% in size; many hits overshoot -100%
Target sequence (P80244 whole entry, looked up): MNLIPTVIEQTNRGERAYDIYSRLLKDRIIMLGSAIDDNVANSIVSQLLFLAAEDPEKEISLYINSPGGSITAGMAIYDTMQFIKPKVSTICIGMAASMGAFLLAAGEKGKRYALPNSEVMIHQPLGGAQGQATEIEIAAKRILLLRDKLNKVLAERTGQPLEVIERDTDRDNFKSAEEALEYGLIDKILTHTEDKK
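Purified B. subtilis ClpP, 10 microg/mL final in Tris/HCl pH8 with KCl, BSA, glycerol and Tween-20, cleaved an Abz/nitrotyrosine-quenched decapeptide. Fluorescence (ex 320, em 430) was read at 0 and 20 min at room temperature. Delta was normalized to 5.8 microM ADEP and DMSO/no-enzyme controls.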
Sfp inh – qHTS Assay for Inhibitors of Bacillus subtilis Sfp phosphopantetheinyl transferase (PPTase); 4'-phosphopantetheinyl transferase ffp (Bacillus subtilis), Q9F4F7; Biochemical Sfp PPTase activity, qHTS; Potency, µM, without a hit: max response, negative = inhibition, usual class: inhibitors; 310,000 compounds, 3.5% hits; AID 1490, 2009; active = well fitted inhibition curve with a large enough effect; inconclusive = small, poorly fitted or top-dose-only effect, or another doubt; inactive = no such curve, though single readings can be large or run the other way;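 note: the enzyme is Sfp with the accession as filed and its product quenches rhodamine fluorescence; potency is the fitted concentration of half-maximal effect; 0% = enzyme reaction without inhibitor and -100% = no enzyme wells; top concentration of the series not given in the record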
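Step 1, compound plus 15 nM Sfp-PPTase, 15 min, room temperature. Step 2, add rhodamine-CoA (5 uM) and BHQ-2-YbbR (12.5 uM). Step 3, read 525/598 nm fluorescence at 0 and 30 min.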
* marks the source's active call; other numbers are inactive results; ? = inconclusive; / = not tested or not shown; & = joins results of further samples; [ ] = another dose, or the depositor's remark.

[1] C=CCN(CC=C)C(=O)C1CCN(Cc2ccc(OCc3ccccc3)cc2)CC1
[2] CC1CCCN(C(=O)COC(=O)c2cccc(NS(=O)(=O)c3ccccc3)c2)C1 (stereo not given)
[3] Cc1ccc(C(=O)N/C(=C\c2ccco2)C(=O)NCCc2c[nH]c3ccccc23)cc1
[4] COc1ccc(/C=N/Nc2nc(C)c([N+](=O)[O-])c(N(C)c3ccccc3)n2)cc1OC
[5] CCC(=O)Nc1cccc(-c2nc3ccc(C)cc3o2)c1
[6] C[C@H]1CN([C@@H](C)CO)C(=O)CCCn2nncc2CO[C@@H]1CN(C)C(=O)Nc1ccnc(N2CCOCC2)c1
[7] Fc1ccccc1Nc1nc2ccccc2o1
[8] Cc1cccc(NC(=O)CN2CCN(C(=O)C3CCCO3)CC2)c1C (stereo not given)

screen / no.,1,2,3,4,5,6,7,8
CtBP-E1A blk,/,4,1,-8,-8,5,-1,-1
gsp antagonist,6%,6%,-33%,18%,-12%,/,-9%,7%
gsp ag,-31%[inhibitor],-23%,-8%[15.4 µM],-2%,1%,-9%,22%,-42%[inhibitor]
TRPV1 potentiator,3,6,-2,1,-3,/,2,0
Menin MLL FP FL,-1.9,/,/,-1.7,-0.5,/,7.2,/
ClpP mod,0.1%,-1.4%,0.6%,1.6%,/,0.8%,/,1.1%
Sfp inh,0%,/,?,0%,0%,/,8%,6%

[9] COc1ccc(-n2nnnc2-c2nc3ccccc3s2)cc1
[10] CCCCc1ccc(NC(=O)N2CCNC(=O)C2CC(=O)Nc2ccsc2C(=O)OC)cc1 (stereo not given)
[11] CN1CCN(c2ccc(C(=O)c3ccc(Br)cc3)cc2[N+](=O)[O-])CC1
[12] CC(=O)Nc1ccc(OCC[n+]2cccc(C(N)=O)c2)cc1
[13] CCN(CC)C(=O)n1c(Cc2ccccc2)nc2ccccc21
[14] COc1cc(/C=C/c2cc(C(F)(F)F)[nH]c(=O)n2)cc(OC)c1OC
[15] CCCCC(=O)NC(=S)Nc1ccc(Cl)c(C(=O)O)c1
[16] Cc1cccc(/C=N/n2c(COc3ccccc3)n[nH]c2=S)c1

screen / no.,9,10,11,12,13,14,15,16
CtBP-E1A blk,1,4,-29,2,-28,0,0,/
gsp antagonist,-7%,-2%,3%,4%,-7%,-16%,/,-20%
gsp ag,?,-1%[15.4 µM],1%[15.4 µM],13%,-17%[15.4 µM],-14%[15.4 µM],10%[15.4 µM],0%
TRPV1 potentiator,-4,-8,6,-8,-14,2,1,-7
Menin MLL FP FL,1.9,0.5,-9.6,-1.7,2.4,0.3,5.0,-3.8
ClpP mod,28µM*,-1.4%,/,/,-2.9%,/,/,-1.0%
Sfp inh,15%,-25%,6%,12%,18%,2%,1%,56µM*

[17] O=C(NC1=C(Nc2ccc(Cl)cc2)C(=O)c2ccccc2C1=O)c1ccccc1
[18] Clc1cccc(CSc2nnc(-c3cccnc3)n2Cc2ccco2)c1
[19] Cc1c(CCOC(=O)c2cccc([N+](=O)[O-])c2)sc[n+]1CC(=O)c1ccccc1
[20] CCc1c(O)nc2ccccn2c1=O
[21] C=CCc1ccc(OCC(O)COc2ccc(CC=C)cc2OC)c(OC)c1
[22] COCCNC(=O)c1cc(-c2ccccc2C)n(CC2CC(c3cccc([N+](=O)[O-])c3)=NO2)n1 (stereo not given)
[23] COc1cc(/C=C(\NC(C)=O)C(=O)Nc2ccccc2C)ccc1OC(C)=O
[24] O=C(CN1CCCCC1)Nc1cccc(Oc2ccccc2)c1

screen / no.,17,18,19,20,21,22,23,24
CtBP-E1A blk,?,-10,8,5,1,-8,11,0
gsp antagonist,-18%,-15%,4%,14%,-6%,-15%,1%,3%
gsp ag,-30%,-52%[inhibitor],-1%,-2%,-25%,1%,-14%[15.4 µM],4%
TRPV1 potentiator,-19,2,0,8,13,/,7,-7
Menin MLL FP FL,1.2,6.7,-1.5,9.1,0.3,/,2.3,1.0
ClpP mod,?,-4.0%,-0.1%,-2.9%,0.7%,-0.4%,-4.8%,0.4%
Sfp inh,56µM*,50µM*,18%,16%,-24%,/,13%,?

[25] CCCC(=O)Nc1cccn(Cc2ccccc2Br)c1=O
[26] CCC1Oc2ccccc2N(CC(=O)NCCCN2CCOCC2)C1=O (stereo not given)
[27] COc1ccccc1C(=O)COC(=O)c1cccc(S(=O)(=O)N2CCCC2)c1
[28] CC(=O)/C(N=Nc1ccc(C(=O)O)cc1)=C(\C)O
[29] Cc1cccc(C)c1OCC(=O)Nc1ncn[nH]1
[30] Cc1cc(N2CCN(c3ccc(F)cc3)CC2)nc(-c2ccccc2)n1
[31] COc1ccc(NC(=O)CS(=O)(=O)c2cn(CC(=O)N3CCOCC3)c3ccccc23)cc1OC
[32] CN(CC(=O)NC1CCCC1)S(=O)(=O)c1cnc[nH]1

screen / no.,25,26,27,28,29,30,31,32
CtBP-E1A blk,7,1,-6,5,-4,-17,2,0
gsp antagonist,6%,12%,7%,-6%,6%,7%,7%,4%
gsp ag,1%[15.4 µM],-6%,0%[15.4 µM],-5%[15.4 µM],-54%[inhibitor],?,6%,-6%
TRPV1 potentiator,6,/,1,9,-4,2,7,1
Menin MLL FP FL,5.5,/,/,-0.5,2.4,-0.7,/,0.0
ClpP mod,1.4%,-2.5%,-3.8%,/,-6.0%&-1.2%,-5.5%,0.5%,-0.5%
Sfp inh,-5%,/,2%,17%,3%,-20%,56µM*,16%

[33] CN(C)/C=N/NC(=O)C1Cc2c(ccc3ccccc23)O1 (stereo not given)
[34] Cc1cccc(CC2S/C(=N/c3ccccn3)NC2=O)c1 (stereo not given)
[35] Cc1ccc(C)c(NNC(N)=S)c1
[36] CCOC(=O)CC(NC(=O)c1ccccc1)c1ccc(OC)cc1 (stereo not given)
[37] O=C(Cc1cccs1)Nc1ccc(-c2nnc(-c3ccccc3)o2)cc1
[38] CCOc1ccc(C2C3=C(CCCC3=O)N(CC(=O)O)C3=C2C(=O)CCC3)cc1
[39] CCOC(=O)CC(=O)CSc1nc(C)cc(-c2cccnc2)c1C#N
[40] CCc1[nH]c(C(=O)O)c(C)c1C(=O)OC

screen / no.,33,34,35,36,37,38,39,40
CtBP-E1A blk,/,0,0,10,0,0,11,-5
gsp antagonist,1%,10%,-17%,0%,-2%,3%,-5%,7%
gsp ag,41%,-21%,7%[15.4 µM],13%[15.4 µM],0%,6%,-1%,5%
TRPV1 potentiator,?,-2,-8,16,/,-1,5,-7
Menin MLL FP FL,0.5,7.3,3.4,-7.0,/,0.6,-0.8,2.6
ClpP mod,-3.2%,-1.1%,/,-2.6%,8.9µM*,/,1.4%,-0.5%
Sfp inh,7%,-24%,50µM*,16%,/,-3%,4%,-15%

In the list so far, two contain a furan ring, fused or not.
[3] Cc1ccc(C(=O)N/C(=C\c2ccco2)C(=O)NCCc2c[nH]c3ccccc23)cc1
[18] Clc1cccc(CSc2nnc(-c3cccnc3)n2Cc2ccco2)c1

screen / no.,3,18
CtBP-E1A blk,1,-10
gsp antagonist,-33%,-15%
gsp ag,-8%[15.4 µM],-52%[inhibitor]
TRPV1 potentiator,-2,2
Menin MLL FP FL,/,6.7
ClpP mod,0.6%,-4.0%
Sfp inh,?,50µM*

Compound profiles (already shown). Values in the order: CtBP-E1A blk	gsp antagonist	gsp ag	TRPV1 potentiator	Menin MLL FP FL	ClpP mod	Sfp inh
Profile of `CCOC(=O)CC(=O)CSc1nc(C)cc(-c2cccnc2)c1C#N` → 11	-5%	-1%	5	-0.8	1.4%	4%
Profile of `Cc1ccc(C)c(NNC(N)=S)c1` → 0	-17%	7%[15.4 µM]	-8	3.4	/	50µM*

Additional compounds:
[41] Nc1ncnc2c1ncn2CCN1CCCCC1
[42] c1ccc(Cc2cc[n+](Cc3ccccc3)cc2)cc1
[43] O=C1OC(c2ccccc2)=CC1=Cc1ccccc1O
[44] CNCC(C)COc1ccccc1OCc1ccccc1 (stereo not given)
[45] CCN=C1SC(CC(=O)NCC)C(=O)N1CC (stereo not given)
[46] Nc1nc(Nc2cccc(F)c2)nc(N2CCOCC2)c1[N+](=O)[O-]
[47] O=C(Nc1ccccc1OC(F)F)c1ccc(S(=O)(=O)N2CCCC2)cc1
[48] Cn1c(SCC(=O)N2CCOCC2)nnc1-c1ccco1

screen / no.,41,42,43,44,45,46,47,48
CtBP-E1A blk,11,-18,-4,0,3,-24,11,3
gsp antagonist,9%,12%,/,12%,14%,3%,4%,17%
gsp ag,-2%,26%[15.4 µM],14%,5%,6%,4%[15.4 µM],-3%,6%[15.4 µM]
TRPV1 potentiator,-12,11,/,-7,10,28,-15,-1
Menin MLL FP FL,3.3,1.3,/,4.2,5.3,-0.1,/,/
ClpP mod,-0.7%,/,-5.4%,-1.2%,-0.3%,/,0.8%,1.2%
Sfp inh,-2%,16%,/,1%,14%,-7%,/,24%

[49] O=C(c1cccc(S(=O)(=O)Nc2ccccc2Cl)c1)N1CCC1
[50] O=C(CS(=O)CC(=O)Nc1ccc(Cl)cc1)NCC1OCCc2ccccc21 (stereo not given)
[51] CN(CC(=O)Nc1ccc(Cl)c(C(F)(F)F)c1)C(=O)CC1Sc2ccccc2NC1=O (stereo not given)
[52] N#C/C(=C\c1cn(CCOc2ccccc2)c2ccccc12)C(=O)NCc1cccs1

screen / no.,49,50,51,52
CtBP-E1A blk,-15,6,1,22
gsp antagonist,-15%,-8%,-20%,10%
gsp ag,-3%[15.4 µM],2%[15.4 µM],-18%,7%
TRPV1 potentiator,8,-27,16,8
Menin MLL FP FL,/,0.5,/,9.5
ClpP mod,-2.9%,11µM*,1.6%,0.7%
Sfp inh,/,7%,28%,20%
